rRNA inh HTS: inhibitors of bacterial rRNA selective over humanized ribosomes; E. coli WT GFP vs humanized-ribosome RFP mutants, fluorescence, 24 h; active compounds read low; DMSO median 0, no signal -100; 350,000 tested, 1.6% active; GFP signal change (wild-type ribosome), % (no concentration beside the values); AID 720706;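 active means significant combined selectivity score with lowered wild-type GFP, culture density cut under 30%, mutant RFP and density less affected; inactive means any of these conditions unmet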; further: one replicate is shown; some compounds called inactive have numbers as strong as hits
Bfl-1 A1 inh: inhibitors of the anti-apoptotic protein A1, read as caspase activation; MEF A1-2A-BIM cells, Caspase-Glo 3/7 luminescence, 3 h; percent of clofoctol response, vehicle zero; 330,000 tested, 0.066% active; caspase activation, % (no concentration beside the values); AID 2462;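 active means over half of replicate activation scores above 10%, or exactly half above 10 with the replicate mean above 10; inconclusive means replicate mean below 10 yet half the replicates above 10; inactive means over half of replicates below 10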;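 further: wells of about 30 µL received 50 nL stock; many hits fall short of the cut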
Calb FLC: C. albicans growth modulation with fluconazole; C. albicans CaCi-2 (fluconazole-resistant clinical isolate) + fluconazole, Alamar Blue growth, 48 h; 300,000 tested, 0.57% active; growth inhibition, % (no concentration beside the values);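 active means most replicates above 75%; inconclusive means exactly half above 75%; inactive means most below 75%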;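 further: all wells also contain fluconazole at 8 µg/ml as a sub-toxic cotreatment; 0% = median of DMSO wells and 100% = median of geldanamycin control wells; wells of about 8 µL received 7.5 nL stock; the first replicate is given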
ALR inh: human ALR oxidase inhibition via reduced H2O2; inhibition, % (no concentration beside the values); P55789; 290,000 tested, 3.8% active; purified ALR, DTT oxidation, H2O2 HRP-luminol luminescence; AID 485317;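 active means mean and each replicate at 75% or more; inconclusive means only one of the two met; inactive means neither met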;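 further: stock transfer was 7.5 nL into about 7.5 µL; 0% = neutral wells and 100% = wells with inactivated enzyme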
Target sequence (P55789 whole entry, looked up): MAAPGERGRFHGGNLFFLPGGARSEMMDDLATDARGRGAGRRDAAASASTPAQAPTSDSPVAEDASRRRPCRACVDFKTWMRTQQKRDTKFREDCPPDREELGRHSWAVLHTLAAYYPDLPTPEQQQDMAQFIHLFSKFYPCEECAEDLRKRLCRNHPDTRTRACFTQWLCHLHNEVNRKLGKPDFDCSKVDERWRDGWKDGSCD
Beta2AR agonist: activates human beta-2 adrenergic receptor causing internalization | P07550 | Am2.2-beta2AR cells, FAP receptor internalization, flow cytometry; reference of the scale not given here | response, % (no concentration beside the values) | 340,000 tested, 0.43% active | AID 504454;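 active means response above a set limit, near 3 SD of response in nonfluorescent compounds, cut at about 42% in these data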;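 further: stock transfer was 100 nL into about 11 µL; a reference agonist was the positive control; negative values mostly stem from fluorescent compounds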
Target sequence (P07550 whole entry, looked up): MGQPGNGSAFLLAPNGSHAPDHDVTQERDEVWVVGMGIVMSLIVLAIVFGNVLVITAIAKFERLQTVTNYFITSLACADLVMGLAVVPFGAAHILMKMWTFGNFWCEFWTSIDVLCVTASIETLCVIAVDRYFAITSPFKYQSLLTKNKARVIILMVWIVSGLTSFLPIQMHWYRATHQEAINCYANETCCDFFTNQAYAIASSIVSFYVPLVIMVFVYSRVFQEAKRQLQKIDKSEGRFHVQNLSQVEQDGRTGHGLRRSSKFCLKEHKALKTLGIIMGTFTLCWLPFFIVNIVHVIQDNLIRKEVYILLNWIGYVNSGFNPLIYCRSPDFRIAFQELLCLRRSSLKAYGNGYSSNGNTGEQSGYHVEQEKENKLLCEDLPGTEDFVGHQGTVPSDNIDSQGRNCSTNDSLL
LANA-H2B inh: blocks KSHV LANA binding to histone H2A/H2B | inhibition, % (concentration not given with the values) | cell-free LANA-H2A/H2B peptide, fluorescence polarization | Q9QR71 | 320,000 tested, 0.6% active; in the data active means inhibition mostly above about 10%, no sharp cut-off; inactive means mostly below about 6.7%;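 further: stock transfer was 7.5 nL into about 10 µL; 0% = median of vehicle wells and 100% = median of positive control wells; one replicate is shown; the record names a cut of 25% in any replicate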
T cruzi repl: blocks replication of Trypanosoma cruzi; T. cruzi beta-gal in NIH3T3, luminescence, 90 h; inhibition, % (concentration not given with the values); 300,000 tested, 1.4% active; AID 1885;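 active means mean inhibition across valid replicates above about 55%, limit read from the data; inconclusive means mean below that limit but half or more replicates reach it; inactive means mean below it, under half of replicates reach it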;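 further: signal also drops with host cell toxicity which is not excluded here; 0% = plate median of DMSO wells and 100% = zero luminescence signal; higher percent means less beta-gal luminescence so fewer parasites; stock transfer was 50 nL into about 50 µL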
Beta cell apopt: blocks beta cell apoptosis; INS-1E cytokine-induced death, ATP luminescence, 48 h; percent of positive-control rescue, neutral wells zero; protection from apoptosis, % (test concentration not listed); 300,000 tested, 0.8% active;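 active means all replicates at 75% or more, or half of them and the mean; inconclusive means half reach 75% but not the mean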;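 further: 0% = cytokine-treated negative control wells and 100% = positive control rescue; higher means more ATP so stronger rescue from cytokine killing; wells of about 40 µL received 100 nL stock; the first replicate is given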
rRNA inh HTS OD600: further read-out of rRNA inh HTS, marked with its call; OD600 change, %; measured here: OD600 growth;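 optical density of the mix in the first replicate; 0 = DMSO median and -100 = no signal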
rRNA inh HTS RFP: recorded beside rRNA inh HTS, whose call it bears; RFP signal change, %; measured here: RFP humanized mutant strains;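 first replicate; 0 = DMSO median and -100 = no signal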
* hit, by the source's call; ? = inconclusive; / = no result given. A portion of the library (hit frequency here may not be typical).

SMILES | rRNA inh HTS | rRNA inh HTS OD600 | rRNA inh HTS RFP | Bfl-1 A1 inh | Calb FLC | ALR inh | Beta2AR agonist | LANA-H2B inh | T cruzi repl | Beta cell apopt
Cc1ccc(OCc2cc(C(=O)N(C)CC3CCOCC3)no2)cc1C | 3 | -7 | 0.3 | 0.3 | -4 | -20 | -4 | -19 | -6 | -6
CCOc1ccc(Cc2nn[nH]n2)cc1 | / | / | / | -0.3 | 0 | -22 | 6 | 9.0 | -23 | -4
Cc1ccc(Nc2nnc(SCC(=O)Nc3cc(C(=O)O)ccc3C)s2)c(C)c1 | -4 | -1 | -8.0 | 0.6 | -3 | 23 | -2 | 0.2 | 1 | -7
Cc1cccc(C(=O)N[C@H](C(=O)Nc2nccs2)C(C)C)c1 | 1 | -8 | -4.6 | 0.6 | 1 | / | -1 | -2.8 | 4 | 2
Cc1csc2ncnc(N3CCN(S(=O)(=O)c4cccc(C(F)(F)F)c4)CC3)c12 | -3 | -32 | -1.1 | -1.7 | -6 | -7 | 7 | 1.7 | 1 | 95*
Cc1ccccc1OCCN1C(=O)NC2(CCc3ccccc32)C1=O (configuration not stated) | / | / | / | -0.2 | 0 | -5 | 1 | -2.1 | 19 | -1
CCOc1cccc2sc(N3CCN(C(=O)c4ccc5ncsc5c4)CC3)nc12 | 5 | 9 | -2.0 | 0.3 | -5 | / | 5 | -5.2 | -15 | /
Cc1ccc(C(=O)CN2C(=O)NC3(CCc4ccccc43)C2=O)c(C)c1 (configuration not stated) | -26 | -31 | -4.2 | -1.1 | -5 | 1 | 1 | -5.5 | 2 | 1
CCN(CC)c1ccc(NC(=O)C2CC(=O)N(Cc3ccccc3)C2)cc1 (configuration not stated) | -18 | -2 | -3.4 | 0.0 | -6 | / | 5 | / | 19 | 28
CCC(C(=O)OCC(=O)NC(=O)c1ccccc1)c1ccccc1 (configuration not stated) | 1 | 1 | 1.0 | 1.5 | -1 | 1 | -7 | 0.0 | -14 | -3
Cc1ccc(C(=O)COC(=O)c2ccco2)cc1C | 1 | -16 | -0.1 | -2.7 | 12 | 12 | -6 | -3.7 | -9 | /
Cc1cc(C(=O)Nc2c(F)cc(F)cc2Br)n(-c2ccccc2)n1 | -2 | -1 | -0.6 | -0.6 | -11 | / | 3 | -3.0 | 1 | 4
C/C(=N\NC(=O)C(O)c1ccccc1)c1ccc(Br)s1 (configuration not stated) | 3 | 3 | 1.3 | 1.5 | 4 | -2 | -10 | -1.9 | -17 | -8
O=C(Nc1ccc(-n2cnnn2)cc1)c1cccc(S(=O)(=O)N2CCCC2)c1 | 3 | 10 | -2.6 | 1.6 | / | -2 | -4 | -8.2 | / | -2
COc1ccc(CCNC(=O)Cn2c(=O)cnc3ccccc32)cc1 | / | / | / | 1.9 | 0 | -5 | -6 | 7.0 | 12 | -3
CCOC(=O)c1c(CSc2nc(C)cc(C)c2C#N)n(C)c2cc(Br)c(OC(C)=O)cc12 | / | / | / | -0.3 | -8 | -3 | 5 | -5.8 | -1 | 111*
CCOC(=O)c1c(NC(=O)CN2C(=O)NC3(CCC(C)CC3)C2=O)sc(C)c1-c1ccc(C)cc1 (configuration not stated) | / | / | / | -1.7 | -3 | -2 | 4 | -2.0 | 6 | -1
CN(C)S(=O)(=O)c1ccc(NC(=O)c2ccc([N+](=O)[O-])cc2)cc1 | 4 | 8 | -1.8 | / | 5 | / | -3 | / | 12 | /
Fc1ccc(C2CC(c3ccccc3)Nc3ncnn32)cc1 (configuration not stated) | 3 | -10 | -1.6 | -0.3 | 4 | -4 | 0 | -2.0 | 1 | -2
CCC1(c2ccccc2)NC(=O)N(CC(=O)N(C)CC(=O)Nc2cccc(OC)c2)C1=O (configuration not stated) | 7 | 0 | 0.3 | 0.1 | 3 | 3 | 11 | -1.3 | -8 | -2
CC(=O)OCC#CCSc1nc2ccccc2n1C | 3 | 13 | 7.7 | -2.4 | 11 | -3 | 2 | 2.0 | -4 | -10
COC(=O)c1cn(Cc2cccnc2)c(=O)c2ccccc12 | -13 | -1 | 24 | 1.4 | -1 | -3 | 1 | -1.4 | -2 | -5
Cc1cc(C)cc(C(=O)Nc2nc3ccccc3[nH]2)c1 | -54 | -61 | -24 | -1.1 | -26 | -5 | -3 | 1.2 | -18 | 34
CCC(C)Sc1ccc([C@H]2N[C@@](Cc3ccccc3)(C(=O)OC)[C@H]3C(=O)N(C)C(=O)[C@@H]23)cc1 (some centres not stated) | -5 | -13 | 7.3 | 1.0 | -11 | 2 | -4 | 0.2 | 23 | 10
CCCCSCCCNC(=O)c1ccc(CS(=O)(=O)c2ccccc2OC)o1 | -10 | -10 | 1.0 | 0.5 | -3 | / | -6 | 1.2 | 6 | 2
Cc1cc(NC(=O)c2ccc([N+](=O)[O-])cc2)n(C)n1 | 12 | 14 | -0.8 | -1.2 | -19 | -17 | -4 | -10 | -20 | -4
CCC(=O)Nc1nc2c(c(=O)[nH]1)CCCC2 | 13 | 8 | 0.4 | -0.5 | -4 | 3 | 6 | 0.7 | -11 | 1
Cc1cccc(NC(=O)c2ccc3c(c2)C(=O)N(c2ccccc2C)C3=O)n1 | 1 | 2 | -2.5 | -0.9 | -5 | -12 | 9 | 7.5 | -2 | -5
Cc1onc(-c2ccccc2Cl)c1C(=O)OCc1nnc(-c2ccccc2)o1 | -2 | -40 | -4.0 | -0.5 | 9 | 1 | -1 | 0.7 | 1 | -2
O=C(CSC1CC(=O)N(c2ccc(C(=O)O)cc2)C1=O)Nc1ccc(Cl)cc1 (configuration not stated) | 8 | 7 | -0.9 | 0.3 | 9 | 98* | 2 | -0.2 | -14 | -12
O=C(CSc1nnc(NC(=O)c2ccccc2F)s1)NCc1ccc(F)cc1 | -3 | 0 | -2.0 | -0.2 | 24 | -16 | -8 | -27 | -1 | -3
Cc1ccc(NC(=S)N(CCCN2CCCC2)Cc2cccn2Cc2ccc(Cl)cc2)cc1 | 6 | -3 | 6.9 | -0.2 | -10 | 3 | 22 | -5.1 | 46 | 4
COc1cccc(CNC(=O)CCC2CCCN(Cc3cc4ccccc4o3)C2)c1 (configuration not stated) | 11 | -7 | 14 | 0.2 | -4 | -5 | -6 | -5.2 | 62* | 3
COCCC(=O)N1CCC(Oc2ccc(C(=O)N3CCCCC3CCO)cc2)CC1 (configuration not stated) | 6 | 2 | -0.2 | 0.4 | 7 | -19 | -1 | -0.5 | -2 | /
Cc1ccc(OCC(=O)Oc2ccc(C(C)C)cc2)cc1 | 5 | 9 | -3.7 | 1.0 | 0 | 16 | 4 | 1.1 | -9 | /
CC1CCN(S(=O)(=O)c2ccc3nc(-c4ccccn4)cc(C(=O)NCCN(C)Cc4ccccc4)c3c2)CC1 | 3 | 2 | -1.4 | / | -5 | / | 6 | / | 48 | /

Grouped by structure: the compounds so far with a COOH group (2)
SMILES | rRNA inh HTS | rRNA inh HTS OD600 | rRNA inh HTS RFP | Bfl-1 A1 inh | Calb FLC | ALR inh | Beta2AR agonist | LANA-H2B inh | T cruzi repl | Beta cell apopt
Cc1ccc(Nc2nnc(SCC(=O)Nc3cc(C(=O)O)ccc3C)s2)c(C)c1 | -4 | -1 | -8.0 | 0.6 | -3 | 23 | -2 | 0.2 | 1 | -7
O=C(CSC1CC(=O)N(c2ccc(C(=O)O)cc2)C1=O)Nc1ccc(Cl)cc1 (configuration not stated) | 8 | 7 | -0.9 | 0.3 | 9 | 98* | 2 | -0.2 | -14 | -12

Additional results:
SMILES | rRNA inh HTS | rRNA inh HTS OD600 | rRNA inh HTS RFP | Bfl-1 A1 inh | Calb FLC | ALR inh | Beta2AR agonist | LANA-H2B inh | T cruzi repl | Beta cell apopt
Cc1cc2c(cc1S(=O)(=O)N(C)C1CCCCC1)OCC(=O)N2 | -6 | -13 | 1.5 | 0.3 | -12 | / | -4 | -4.2 | 10 | 3
CC(C(=O)N1CCOCCOCCOCCOCCOCC1)N1C(=O)c2ccccc2C1=O (configuration not stated) | 11 | 8 | 1.8 | 0.8 | -2 | 1 | 3 | -0.6 | -3 | -1
CCOC(=O)Cn1cc(C(=O)C(C)(C)C)c2ccccc21 | -1 | 4 | 3.6 | 0.7 | -17 | 3 | 4 | -5.1 | -1 | -4
COc1ccc(NC(=O)CSc2nncn2C)cc1OC | / | / | / | 2.0 | 22 | -9 | -1 | 4.8 | -2 | -9
Cc1onc(-c2ccccc2)c1C(=O)Nc1ccc2c(C)cc(=O)oc2c1 | / | / | / | -0.1 | 4 | 2 | 6 | -7.1 | 6 | 3
O=C(COc1ccccc1)N=C1SC2CS(=O)(=O)CC2N1c1cccc(F)c1 (configuration not stated) | 1 | 12 | -0.9 | -0.4 | 6 | 0 | 48* | 0.6 | 3 | 0
CCCCCn1c2nc3ccccc3nc2c2c(=O)n(CC(C)C)cnc21 | / | / | / | 2.0 | 4 | -1 | -25 | -1.7 | 1 | 5
O=C(Cc1ccc(S(=O)(=O)N2CCOCC2)s1)NC1CCCCC1 | 16 | 10 | -0.2 | 1.4 | / | -12 | 2 | -1.4 | / | 3
CC1(NC(=O)c2ccccc2)CCN(CCCc2ccccc2)C1=O (configuration not stated) | 4 | 6 | -0.5 | -1.3 | / | -7 | 0 | 8.3 | / | 13
O=C(NCc1nnc(SC/C=C/c2ccccc2)o1)c1ccco1 | / | / | / | 0.0 | -7 | 6 | 5 | 3.5 | -14 | 0
Cc1ccc(S(=O)(=O)N2CCC(=O)N(C(COCc3cccc(C)c3)C(C)C)CC2)cc1 (configuration not stated) | / | / | / | 1.3 | -2 | -14 | -1 | 4.1 | -2 | 8
CC1CCc2sc(C(=O)NCC(C)(C)N3CCOCC3)cc2C1 (configuration not stated) | 4 | 14 | -0.3 | ? | 1 | -3 | -2 | -3.2 | 4 | 0
CC(C)CC(OC(=O)c1ccco1)C(=O)NC1CCCC1 (configuration not stated) | 10 | 9 | 0.6 | -0.1 | 22 | 4 | -5 | -1.5 | -10 | 3
CCC(O)(c1ccc(OC)cc1)C(CN1CCOCC1)c1ccccc1 (configuration not stated) | -13 | -10 | 0.6 | -0.1 | -24 | -5 | -2 | -2.5 | -7 | -4
O=C(NN=C1CCCC1)c1cccc(Br)c1 | -2 | 5 | 0.7 | -0.2 | 13 | 43 | 0 | 5.3 | -17 | -1
COC(=O)CN1C(=O)Nc2ccc(Br)cc2C1c1ccccc1Cl (configuration not stated) | / | / | / | 0.4 | -1 | 8 | 5 | 4.6 | 7 | -11
O=C(Cn1c(=O)oc2cc(S(=O)(=O)N3CCc4ccccc43)ccc21)NC1CCCC1 | -17 | -13 | -14 | 0.6 | 1 | 96* | -1 | -3.0 | 7 | 4
CC(C)(C)c1ccc(OCC(=O)N/N=C/c2ccsc2)cc1 | / | / | / | 0.2 | -21 | -7 | -8 | 1.3 | -16 | 3
CCOC(=O)C1CCN(S(=O)(=O)c2c(C)n[nH]c2C)CC1 | / | / | / | 1.8 | 5 | -2 | 11 | 0.5 | 4 | 3
CC(C)c1ccc(N(CC(=O)NC(C)(C)C)C(=O)CCC(=O)Nc2nccs2)cc1 | 7 | 17 | 0.9 | 0.2 | 7 | -8 | 1 | 0.2 | -3 | -8

Source: PubChem BioAssay
